# Choline anaer gr: choline-fed anaerobic bacterial growth inhibition; Gram-negative bacterium anaerobic choline minimal medium, absorbance growth; stronger effect = lower value; many inactives read as strong as hits in the columns shown; calls only; 55,000 compounds, 0.2% hits; AID 1963822;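 active = growth z-score on choline under -2 at 7 or 20 h with little or no fall on glycerol, limits in tiers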;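 also: stock transfer was 300 nL into about 50 µL; the organism is E. coli; final concentration not given here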
# Choline anaer gr early: second read-out of Choline anaer gr, no call of its own (marks repeat the call); z-score; measured here: choline growth z-score, timepoint 1;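 score of optical density at 7 h as mean of two plates; lower means less growth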
# * marks the source's active call; other numbers are inactive results; i = inactive; & = joins results of further samples. An excerpt. The share of hits here may be higher or lower than overall.
# Order of values – Choline anaer gr	Choline anaer gr early
(1) CCOC(=O)c1c(NC(=O)CSc2nnc(CNC(=O)c3ccccc3F)n2C)sc2c1CCCCC2
    i	2.18
(2) O=C(NCCC1=CCCCC1)C1CCN(c2cncnc2N2CCOCC2)CC1
    i	0.56
(3) Cc1c(Cl)cccc1NC(=O)CSc1nc(-c2ccccc2)no1
    i	2.32
(4) COc1cc(OC)c(NC(=O)c2[nH]c(C)c(S(=O)(=O)N3CCCC3)c2C)cc1Cl
    i	0.01
(5) Cc1ccc(-c2c(C(=O)N3CCC(C)CC3)oc(=O)c3ccccc23)cc1
    i	-0.03
(6) Cc1ccc(-n2nc(C(=O)N3CCCC3)nc2-c2ccccc2)cc1
    i	-1.67
(7) COc1cccc2sc(NC(=O)c3ccc4c(c3)OCCO4)nc12
    i	1.84
(8) COc1cccc(NC(=O)CCS(=O)(=O)c2ccc3c(c2)NC(=O)CS3)c1
    i	-1.38
(9) Cc1ccccc1-c1noc(CCn2nc(-c3ccccc3)ccc2=O)n1
    i	0.54
(10) CN(C)c1ccc(C(CNC(=O)C2CC2)N(C)C)cc1 (stereo unspecified)
    i	-0.24
(11) CC(C)c1ccc(NC(=O)C2CCN(S(=O)(=O)c3cccnc3)CC2)cc1
    i	0.72
(12) CCN1CCCC1CNC(=O)c1ccc(Cn2c(SCc3ccc(F)cc3)nc3cccnc32)cc1 (stereo unspecified)
    i	0.75
(13) O=C(NCC1COCCO1)c1ccccc1NC(=O)c1nsc2ccccc12 (stereo unspecified)
    i	0.22
(14) C=CCOc1ccc(C2CC(=O)Nc3c2cnn3-c2nc3ccccc3s2)cc1 (stereo unspecified)
    i	-0.61
(15) CCOc1ccc(NS(=O)(=O)c2cc(-c3nc(C(C)(C)C)cs3)cs2)cc1
    i	-0.23
(16) CCC(C)(C)NS(=O)(=O)c1c(C)sc(C)c1-c1cc(C(F)(F)F)on1
    i	0.82
(17) COc1ccc2cc(CNc3ccccc3)c(=O)n(CC(=O)NCCc3ccccc3)c2c1
    i	0.13
(18) O=C(NCC1CCCO1)c1ccc2c(c1)CCCN2S(=O)(=O)c1ccc(Br)cc1 (stereo unspecified)
    i	0.64
(19) O=C(O)CCC/C=C\C[C@@H]1CO[C@H](C(F)(F)F)O[C@@H]1c1ccccc1O
    i	0.19
(20) CCOC(=O)c1c(NC(=O)NCc2cccn2Cc2ccc(F)cc2)sc2c1CCCC2
    i	0.1
(21) CC1CCN(C(=O)C2CCCN(S(=O)(=O)c3ccc4c(c3)CC(C)N4C(=O)C3CC3)C2)CC1 (stereo unspecified)
    i	0.15
(22) Cc1ccc(NC(=O)NCc2noc3ccccc23)cc1F
    i	1.12
(23) O=C(CN1C(=O)CCCc2cc(S(=O)(=O)N3CCCC3)ccc21)NCc1ccc(Cl)cc1
    i	0.49
(24) CCOc1c(Cl)cc(CNCCNC(=O)c2nonc2N)cc1OC
    i	0.2
(25) O=C(Nc1ccccc1)c1cnn2c1NC(c1ccc(Br)cc1)=CC2c1ccccc1 (stereo unspecified)
    i	0.25
(26) COc1cc2c3cc1Oc1cc(ccc1O)C[C@@H]1c4c(cc(OC)c(O)c4Oc4ccc(cc4)C[C@@H]3N(C)CC2)CC[N+]1(C)C
    i	0.35
(27) O=C(NCc1ccccn1)c1nc(N2CCCCC2)c2oc3ccccc3c2n1
    i	0.12
(28) CCOc1ccc(-c2noc(CCC(=O)Nc3ccncc3)n2)cc1OCC
    i	1.34
(29) COc1ccc(CC(=O)Nc2ccc3[nH]c(=O)oc3c2)cc1
    i	1.01
(30) O=C(NC1CCCC1)c1cc2ccc3cccnc3c2[nH]1
    i	-1.08
(31) O=C(Nc1ccc(Cl)cc1)N1CCCN(c2nc3cc(F)ccc3n3cccc23)CC1
    i	-0.25
(32) CCOC(=O)C1(C)C=C(Nc2ccc(O)c(C(=O)O)c2)C(=O)N1c1ccccc1 (stereo unspecified)
    i	-1.55
(33) O=S(=O)(c1cccs1)N1CCC2(CC1)NCCN=C2NCc1ccccc1Cl
    i	-0.35
(34) OCCOCCNCc1ccc(-c2ccccc2F)o1
    i	-0.29
(35) CCOc1ccc(-c2cc(NC(=O)Cn3ncc4c3-c3ccccc3OC4)on2)cc1OCC
    i	-0.88
(36) COCc1cc(O)c(O)c(O)c1-c1c(COC)cc(O)c(O)c1O
    i	0.69
(37) CCCN1CCN(c2ncc3c(n2)CCNC3)CC1
    i	0.7
(38) Cc1c(N(C(=O)c2ccccn2)C2(C(=O)NC3CCCC3)CCCCC2)c(=O)n(-c2ccccc2)n1C
    i	-1.94
(39) CN(C)CCN(Cc1ccc(Cl)cc1)c1ccccn1
    i	-0.84
(40) CCc1cc2c(cc3c(=O)n(CCCC(=O)N4CCC(C)CC4)nc(CC)n32)s1
    i	0.12
(41) O=C(NCc1ccc2c(c1)OCCCO2)c1ccc2c(c1)OCCO2
    i	-0.11
(42) Cc1cc(-n2nc(C)cc2C)n2nc(-c3ccc(Cl)cc3)c(C)c2n1
    i	-0.45
(43) CCCn1nnnc1NCc1ccc2c(c1)n(C)c(=O)n2C
    i	-0.06
(44) Cc1ccc(-c2cc(N3CCN(C(=O)c4ccc(F)cc4Cl)CC3)ncn2)cc1
    i	0.47
(45) CCOC(=O)CC1=CC(SCc2cc(C)ccc2C)=Nc2ccccc2N1
    i	0.53
(46) C=C(C)C1CC=C(C)CC1 (stereo unspecified)
    i	-0.25
(47) COc1ccccc1OCC(=O)NCCc1csc(-c2ccccc2)n1
    i	0.74
(48) COc1ccc(NC(=O)NCCc2n[nH]c(Cc3ccc(F)cc3)n2)c(OC)c1
    i	0.74
(49) COc1ccc(-n2nc3c(N4CCCC(C(=O)NCc5ccccn5)C4)nnc(C)c3c2C)cc1 (stereo unspecified)
    i	-0.05
(50) CCCc1cc(C2CCCN2Cc2ccc(F)cc2)no1 (stereo unspecified)
    i	-1.02
(51) CC1=C(c2ccc(C)c(C)c2)S(=O)(=O)N(Cc2ccc(C(=O)NCc3cccnc3)cc2)C1=O
    i	0.23
(52) CCC1CCCCN1CCCNc1nn2nnnc2c2ccccc12 (stereo unspecified)
    i	0.19
(53) O=S(=O)(Nc1ccc(-c2ccc(N3CCCC3)nn2)cc1)c1cccc(F)c1
    i	-0.87
(54) NC(=O)C1=CN(C2OC(COP(=O)(O)OP(=O)(O)OC[C@H]3O[C@@H](n4cnc5c(N)ncnc54)C(OP(=O)(O)O)[C@H]3O)C(O)C2O)C=CC1 (stereo partly specified)
    i	0.85
(55) Cc1noc(Cn2c(=O)c3ccccc3n(CC(=O)Nc3ccccc3F)c2=O)n1
    i	1.2
(56) COc1ccccc1CNC(=O)c1ccc(-c2noc(C3CCCN(C(=O)c4ccccc4)C3)n2)cc1 (stereo unspecified)
    i	0.87
(57) CCCCC(Sc1nc2c(cnn2CCO)c(=O)[nH]1)C(=O)O (stereo unspecified)
    i	-0.25
(58) O=S(=O)(NCc1cccn1Cc1ccccc1)c1ccccc1Cl
    i	0.56
(59) O=C(CN1C(=O)C2CCCCN2c2ccc(C(=O)N3CCCCC3)cc21)NCc1cccnc1 (stereo unspecified)
    i	0.06
(60) COC(=O)c1sccc1NC(=O)c1cc2c([nH]c1=O)CC(c1ccccc1)CC2=O (stereo unspecified)
    i	1.23

# Next entries follow.
# Order of values – Choline anaer gr	Choline anaer gr early
(61) C=C1C(=CC=C2CCC[C@]3(C)C(C(C)CCCC(C)C)CC[C@@H]23)CC(O)CC1O (stereo partly specified)
    i	0.72
(62) COc1ccc(-c2c(C)[nH]n3c(=O)cc(C)nc23)cc1
    i	0.8
(63) COc1ccc(CSc2nccc3c2ccn3CC(=O)Nc2ccc3c(c2)OCCO3)cc1
    i	-0.53
(64) Cc1ccccc1NC(=O)C(C)n1c2ccccc2c2nc(=O)cc(C)n21 (stereo unspecified)
    i	-1.04
(65) CCc1ccc(-c2[nH]nc3c2C(c2ccc(Br)cc2)C2=C(CC(C)(C)CC2=O)N3)cc1 (stereo unspecified)
    i	0.97
(66) Cc1ccc(Cl)cc1N1CCN(C(=O)c2cnc3scc(C)n3c2=O)CC1
    i	0.88
(67) CCCc1nnc(-c2cc3ccccc3n2CC(=O)N2CCCCC2)o1
    i	-1.12
(68) CN1CCN(C(=O)c2ccc(-c3cccc(F)c3)nc2)C(c2ccccc2)C1 (stereo unspecified)
    i	-1.14
(69) COc1ccc(CNC(=O)C2CCN(C(=O)c3cccnc3-c3ccccc3C)CC2)cc1
    i	-0.8
(70) COc1ccc(NC(=O)c2nnc(CCCC(=O)NCCc3c[nH]c4ccc(C)cc34)s2)cc1
    i	1.31
(71) COc1ccc2cc3c(nc2c1)N(S(=O)(=O)c1ccc(OC)c(C)c1)CC3
    i	-0.43
(72) Cc1cc(C)n(-c2nc(C)c(C(=O)N3CCN(c4ccc(F)cc4)CC3)s2)n1
    i	0.21
(73) Cc1cccc(OCC(=O)N2CSC[C@@H]2C(=O)NCCc2cscn2)c1
    i	-0.42
(74) CC1CCN(c2cncnc2-n2cc(NC(=O)NC(C)(C)C)cn2)CC1
    i	0.47
(75) CCC(=O)N1c2ccc(S(=O)(=O)N3CCCCC3)cc2CC1C(=O)NCCCN1CCOCC1 (stereo unspecified)
    i	-0.71
(76) COc1cc(=O)n(-c2ccc(F)cc2)nc1C(=O)Nc1ccc(Br)cc1F
    i	-0.67
(77) O=C(NC1CCCCC1)N1CCC(N2CCN(Cc3ccccc3)C2=O)CC1
    i	-0.15
(78) CN1C(=O)c2cc(C(=O)N3CCOCC3)nn2CC1(C)C(=O)NC1CCCCC1 (stereo unspecified)
    i	-1.46
(79) O=C(CCn1c(N2CCCCC2)nc2ccsc2c1=O)N1CCN(C2CCCCC2)CC1
    i	-1.28
(80) Cc1cc2c(cc1S(=O)(=O)N(C)CC(=O)N(C)C1CCCCC1)OCC(=O)N2
    i	0.97
(81) Cc1ccc(CNC(=O)N(C)CCc2noc(C(=O)NCc3ccc4c(c3)OCO4)n2)cc1
    i	-0.18
(82) Cc1cc(C)cc(C(=O)N2CCN(c3nc(C)cc(N4CCCCC4)n3)CC2)c1
    i	0.61
(83) CCOC(=O)c1cc2ccsc2n1CC(=O)Nc1cc(Cl)c(OC)cc1OC
    i	2.7
(84) COc1ccc(NC(=O)c2ccc(-c3nc(-c4ccccc4)no3)cc2)cc1OC
    i	-0.55
(85) Cc1[nH]c(C(=O)Nc2cccc(F)c2)c(C)c1S(=O)(=O)N1CCCC1
    i	-0.26
(86) COC(=O)c1sccc1NC(=O)Cn1ccn2nc(-c3ccc(Cl)cc3)cc2c1=O
    i	1.26
(87) Cc1ncc(C(=O)NCc2cccc(Cl)c2)c(C)n1
    i	-1.59
(88) CCOc1ccc(N2C=C(C(=O)c3ccc(CC)cc3)S(=O)(=O)c3cc(F)ccc32)cc1
    i	-0.57
(89) Cc1nn(-c2ccc(F)cc2)c2c1c(=O)c(C(=O)NCCCOC(C)C)cn2C
    i	-0.66
(90) O=C(Cn1c2ccccc2c2ncn(Cc3nc(C4CC4)no3)c(=O)c21)Nc1ccc2c(c1)OCO2
    i	-0.19

# Part of the list above, set out differently.
(69) COc1ccc(CNC(=O)C2CCN(C(=O)c3cccnc3-c3ccccc3C)CC2)cc1
  Choline anaer gr: i
  Choline anaer gr early: -0.8

(83) CCOC(=O)c1cc2ccsc2n1CC(=O)Nc1cc(Cl)c(OC)cc1OC
  Choline anaer gr: i
  Choline anaer gr early: 2.7

(75) CCC(=O)N1c2ccc(S(=O)(=O)N3CCCCC3)cc2CC1C(=O)NCCCN1CCOCC1 (stereo unspecified)
  Choline anaer gr: i
  Choline anaer gr early: -0.71

(73) Cc1cccc(OCC(=O)N2CSC[C@@H]2C(=O)NCCc2cscn2)c1
  Choline anaer gr: i
  Choline anaer gr early: -0.42

# Whole records as entered above:
# Cc1cc(C)cc(C(=O)N2CCN(c3nc(C)cc(N4CCCCC4)n3)CC2)c1 is listed as Choline anaer gr = i; Choline anaer gr early = 0.61
# CN1CCN(C(=O)c2ccc(-c3cccc(F)c3)nc2)C(c2ccccc2)C1 (stereo unspecified) is listed as Choline anaer gr = i; Choline anaer gr early = -1.14

# Additional structures follow:
# Order of values – Choline anaer gr	Choline anaer gr early
(91) CC(=O)N1CCCSc2ccc(S(=O)(=O)NCCc3sccc3C)cc21
    i	-0.09
(92) CCN(CC)CCNC(=O)C(C)C1CCN(S(=O)(=O)c2c(C)noc2C)CC1 (stereo unspecified)
    i	-0.25
(93) CN1CCN(C(=O)C2CCN(S(=O)(=O)c3cc(-c4noc(C5CCC5)n4)cs3)CC2)CC1
    i	-0.32
(94) CC1/C=C/C=C/CC/C=C/C=C/C=C/C=C/C(O[C@@H]2O[C@H](C)[C@@H](O)[C@H](N)[C@@H]2O)CC(O)C(C(=O)O)C(O)CC(=O)CC(O)C(O)CCC(O)CC(O)CC(O)CC(=O)OC(C)C(C)C1O (stereo partly specified)
    i	0.31&0.51
(95) Cc1cccc(-c2nc3nc(C)cc(=O)n3[nH]2)c1
    i	-1.74
(96) COc1ccc(-c2nc3n(c2C(=O)N(C)C)CCS3(=O)=O)cc1
    i	0.11
(97) Cc1nc(-c2cc(S(=O)(=O)NCc3ccccc3Cl)c(C)s2)sc1C
    i	0.49
(98) CC(C)CCNC(=O)C(=O)NCc1n[nH]c(=O)c2ccccc12
    i	-0.26
(99) O=C(O)C1CSC(c2cccc(OCc3ccc(Cl)cc3)c2)N1 (stereo unspecified)
    i	-0.88
(100) O=C1c2ccccc2C(Cc2ccnc(F)c2)(Cc2ccnc(F)c2)c2ccccc21
    i	0.72
(101) Cc1c(-c2nnc(C(=O)NC3CC3)o2)oc2ccccc12
    i	-0.41
(102) CC1CCN(c2cc(N3CCCCC3)c3c4c(onc24)-c2ccccc2C3=O)CC1
    i	-0.54
(103) CCOC(=O)C1CCN(S(=O)(=O)c2cc(-c3ccc(=O)[nH]n3)cc(C)c2C)CC1
    i	1.18
(104) CCSc1ncc2c(=O)n(CC(=O)Nc3cccc(Cl)c3C)cnc2n1
    i	0.22
(105) COc1ccc(CNC(=O)CCCN2CCSc3ccccc32)cc1OC
    i	0.17
(106) CCNC(=O)N1CCCC(c2cccc(C(=O)N3CCCCC3)c2)C1 (stereo unspecified)
    i	-1.64
(107) Cc1nc2nc(-c3ccccc3)nn2c(C)c1CC(=O)N1CCCC1
    i	-1.07
